Screens as filed in PubChem.
Vif A3G = inhibitors of Vif binding to APOBEC3G peptide, primary screen, biochemical, TR-FRET, GST-Vif 1-94, biotin-A3G peptide, dose response retest (AID 1117319) | inhibition, %; hits with a dose series show IC50 in µM | TR-FRET GST-Vif / biotin-A3G peptide binding; higher % means a stronger effect; test concentration not given here; strong numbers were not always called active | Virion infectivity factor (Human immunodeficiency virus type 1 group M subtype B (isolate … | actives 0.57% (n = 260,000);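 active = above the screen mean plus three standard deviations and confirmed in dose response; inconclusive = results disagree or hit not tested in dose response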;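 also: Vif residues 1-94 fused to GST binding biotinylated APOBEC3G peptide 110-148; 0% = full assay without inhibitor and 100% = GST in place of GST-Vif; retest series ran down from 100 µM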
ALR inh = inhibitors of human ALR sulfhydryl oxidase, primary screen, biochemical, H2O2 detection, HRP-luminol luminescence, single point. actives 3.8% (n = 290,000). purified ALR, DTT oxidation. FAD-linked sulfhydryl oxidase ALR (Homo sapiens), P55789. inhibition, % (concentration not given with the values);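 active = mean and each replicate at 75% or more; inconclusive = only one of the two met; inactive = neither met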;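 also: stock transfer was 7.5 nL into about 7.5 µL; 0% = neutral wells and 100% = wells with inactivated enzyme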
Target sequence (P55789 whole entry, looked up): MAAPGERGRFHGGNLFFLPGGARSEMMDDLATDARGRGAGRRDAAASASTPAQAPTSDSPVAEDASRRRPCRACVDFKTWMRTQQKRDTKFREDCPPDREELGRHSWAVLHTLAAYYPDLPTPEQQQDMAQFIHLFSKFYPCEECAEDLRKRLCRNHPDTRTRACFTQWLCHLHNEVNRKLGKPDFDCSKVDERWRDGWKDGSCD
HNF4A DNA FP = change in binding of human HNF4A to DNA, primary screen, biochemical, fluorescence polarization, FITC-DNA; Hepatocyte nuclear factor 4-alpha (Homo sapiens), P41235; 1 h; activity change, % at 10 µM; actives 0.3% (n = 360,000); AID 1224865, 2016; in the data active = activity change above about 30%, passing the limit was not always enough;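 also: controls were the assay level and a saturating level of protein; the project sought stronger binding though the title names inhibitors; some compounds called inactive have numbers as strong as hits; positive values seem to mean higher polarization but the record does not say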
Target sequence (P41235 whole entry, looked up): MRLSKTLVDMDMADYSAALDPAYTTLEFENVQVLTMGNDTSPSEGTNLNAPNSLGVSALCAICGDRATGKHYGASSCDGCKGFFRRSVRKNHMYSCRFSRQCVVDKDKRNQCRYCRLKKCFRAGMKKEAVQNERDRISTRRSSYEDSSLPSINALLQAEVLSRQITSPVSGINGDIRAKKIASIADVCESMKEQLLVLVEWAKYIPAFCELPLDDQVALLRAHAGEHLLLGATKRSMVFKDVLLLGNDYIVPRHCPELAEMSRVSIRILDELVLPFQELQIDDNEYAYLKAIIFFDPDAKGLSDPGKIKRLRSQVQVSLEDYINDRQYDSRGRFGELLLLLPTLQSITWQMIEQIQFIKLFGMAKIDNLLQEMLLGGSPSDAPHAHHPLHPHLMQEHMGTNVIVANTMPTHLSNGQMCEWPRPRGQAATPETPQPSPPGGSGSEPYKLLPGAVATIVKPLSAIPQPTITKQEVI
RanGTP-Impb inh = inhibitors of RanGTP-importin-beta interaction, primary screen, biochemical, FRET, CFP-Ran, YFP-importin-beta, homogeneous; Ran GTPase (GTP-bound) - importin-beta complex; cell-free CFP-Ran/YFP-importin-beta FRET ratio; inhibition, % (no concentration beside the values); actives 1.1% (n = 300,000);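 active = most replicates above 15%; inconclusive = exactly half above 15%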;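 also: 0% = DMSO wells and 100% = Ran loaded with GDP instead of GTP; wells of about 40 µL received 100 nL stock; the first replicate is given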
Calb FLC = C. albicans growth inhibition with fluconazole, primary screen, CaCi-2 strain, Alamar Blue fluorescence; C. albicans CaCi-2 (fluconazole-resistant clinical isolate) + fluconazole, 48 h; growth inhibition, % (test concentration not listed); actives 0.57% (n = 300,000); AID 1979, 2009;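 active = most replicates above 75%; inconclusive = exactly half above 75%; inactive = most below 75%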;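 also: all wells also contain fluconazole at 8 µg/ml as a sub-toxic cotreatment; 0% = median of DMSO wells and 100% = median of geldanamycin control wells; wells of about 8 µL received 7.5 nL stock; the first replicate is given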
LANA-H2B inh = blockers of LANA interaction with H2A/H2B – biochemical, FP readout, HTS, primary screen. Protein LANA1 (Human herpesvirus 8 type P (isolate GK18)), Q9QR71. cell-free LANA-H2A/H2B peptide, fluorescence polarization. inhibition, % (test concentration not listed). actives 0.6% (n = 320,000); in the data active = inhibition mostly above about 10%, no sharp cut-off; inactive = mostly below about 6.7%;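 also: stock transfer was 7.5 nL into about 10 µL; 0% = median of vehicle wells and 100% = median of positive control wells; one replicate is shown; the record names a cut of 25% in any replicate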
Beta2AR agonist = beta2AR agonists driving receptor internalization, primary screen, cell-based, FAP fluorogen, flow cytometry; Am2.2-beta2AR cells; reference of the scale not given here; Beta-2 adrenergic receptor (Homo sapiens), P07550; AID 504454, 2011; response, % (no concentration beside the values); actives 0.43% (n = 340,000);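 active = response above a set limit, near 3 SD of response in nonfluorescent compounds, cut at about 42% in these data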;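 also: stock transfer was 100 nL into about 11 µL; a reference agonist was the positive control; negative values mostly stem from fluorescent compounds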
Target sequence (P07550 whole entry, looked up): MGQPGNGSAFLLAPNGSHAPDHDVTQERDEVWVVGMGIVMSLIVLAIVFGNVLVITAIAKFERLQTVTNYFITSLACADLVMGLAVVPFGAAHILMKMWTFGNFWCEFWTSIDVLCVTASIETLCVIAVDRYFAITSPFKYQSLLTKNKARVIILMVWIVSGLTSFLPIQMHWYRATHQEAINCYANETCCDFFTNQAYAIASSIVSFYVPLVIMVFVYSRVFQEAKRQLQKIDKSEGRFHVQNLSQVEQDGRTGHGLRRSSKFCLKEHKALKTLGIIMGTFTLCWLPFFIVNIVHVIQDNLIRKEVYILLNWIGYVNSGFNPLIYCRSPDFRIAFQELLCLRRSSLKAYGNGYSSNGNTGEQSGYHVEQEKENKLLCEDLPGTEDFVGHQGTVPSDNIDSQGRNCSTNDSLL
Active calls of the source: *; ? = inconclusive; · = no result given. Rows are unselected. About 6.3% of those tested had a hit in this group.

Results follow in this order: Vif A3G	ALR inh	HNF4A DNA FP	RanGTP-Impb inh	Calb FLC	LANA-H2B inh	Beta2AR agonist
[1] COc1cc2c(cc1OC)C(C)N(C(=S)Nc1ccccc1)CC2 (centres undefined)
  1%	-2	-0.5	0.1	-6	0.6	5
[2] Cn1ncc2c(Nc3ccc([N+](=O)[O-])cc3)nc(Cl)nc21
  1%	-1	0.8	6.8	-5	-3.9	-4
[3] COc1ccc(CCNC(=O)c2ccc(NC3=NC4CS(=O)(=O)CC4S3)cc2)cc1OC (centres undefined)
  ·	-6	0.6	4.8	-16	5.5	3
[4] O=C(Nc1ccc(Cl)cc1)N1CCC(c2nc(-c3cccs3)no2)CC1
  1%	-1	2.1	1.4	24	5.2	9
[5] Cc1sc2c(c1C)CN(C1CC(C)(C)NC(C)(C)C1)CN2C(=O)c1ccco1
  3%	-5	·	·	·	-3.1	·
[6] COc1ccc(CN2CN(C3CCCC3)CSC2=S)cc1
  4%	-9	-0.5	3.1	2	-1.3	1
[7] CN1CCN(c2ccc(C(F)(F)F)cc2NC(=O)Nc2ccccc2)CC1
  -15%	·	-0.4	-1.1	2	6.7	17
[8] Nc1nc2cc(Br)ccc2o1
  0%	·	-2.5	·	·	·	-2
[9] Cc1nccn1CC(=O)N/N=C/c1ccccc1O
  20%	13	-5.6	5.0	-4	-4.8	-3
[10] COc1ccc(-c2ccc(-c3noc(-c4cccs4)n3)c(OC)n2)cc1
  20%	-24	25	30*	-2	-0.6	-12
[11] Cc1cc(C)nc(SCC(=O)Nc2ccc(N3CCOCC3)c(Cl)c2)n1
  3%	-29	0.8	·	·	-4.1	3
[12] COc1cc(/C=C(/C#N)C(=O)NCCCc2ccccc2)ccc1OCC(=O)O
  ·	15	-0.8	-7.8	3	-1.9	6
[13] CCOC(=O)N1CCN(C(=O)COc2ccc(S(=O)(=O)Nc3ccc(OCC)cc3)cc2)CC1
  2%	-16	1.4	3.6	3	-0.6	-9
[14] CCOC(=O)c1c(/N=C/N(C)C)sc(C=O)c1-c1ccccc1
  -4%	7	5.5	6.4	12	0.3	-4
[15] CC(=O)Nc1cc(-c2ccc(Cl)cc2)[nH]n1
  22%	-7	-1.3	-4.0	4	8.6	-3
[16] Cc1ccc(C(=O)Oc2cc(-c3ccccc3)no2)cc1
  -4%	1	0.0	-3.4	1	-1.5	-3
[17] O=C(Cn1c(=O)c(=O)n(Cc2ccccc2)c2ccc(Cl)cc21)Nc1ccc(F)cc1F
  -44%	-7	-3.3	0.9	3	11	9
[18] CC1(C)OC(=O)C(=CNc2ccc(F)cc2)C(=O)O1
  3%	-2	-2.5	0.7	6	-3.5	3
[19] CCOC(=O)/C(C(N)=NCCCO)=C(/O)c1ccccc1
  4%	-7	0.5	-0.4	40	2.0	-2
[20] CCc1nc2ccc(C(=O)N3CCN(c4cccc(OC)c4)CC3)cc2nc1CC
  -1%	7	2.7	-3.6	-11	0.7	-2
[21] CCN1CCN(C(=O)c2ccc3c(c2)S(=O)(=O)c2ccccc2C3=O)CC1
  ·	-3	1.1	5.8	3	4.6	1
[22] COc1cc(NC(=O)c2ccc(C(=O)c3ccccc3)cc2)cc(OC)c1OC
  ·	-15	2.8	6.8	3	-0.6	2
[23] Cc1oc(/N=C/c2cccc([N+](=O)[O-])c2)c(C#N)c1C
  ·	65	1.5	-1.8	-3	6.8	-1
[24] CCS(=O)(=O)N1CCC(C(=O)Nc2cc(Cl)ccc2O)CC1
  ?	-7	5.8	0.3	7	1.6	6
[25] Cc1ccc(-n2c(O)c(C=Nc3ccccc3-c3n[nH]c(=S)[nH]c3=O)c3ccccc3c2=O)cc1C
  -11%	·	-1.9	-1.0	100*	·	2
[26] CCCCC(CCC(=O)Nc1cccc([N+](=O)[O-])c1)C(=O)O (centres undefined)
  2%	·	2.5	-1.4	0	0.4	-1
[27] CC1=C(C(=O)N2CCOCC2)C(c2ccccc2F)C2=C(CC(C)(C)CC2=O)N1 (centres undefined)
  14%	-2	-0.9	1.7	-7	0.7	-8
[28] O=C1CC(c2cccs2)c2cc3c(cc2N1)OCCO3 (centres undefined)
  -3%	0	-0.3	-0.5	10	-5.1	-7
[29] COc1ccc(-c2nnc(SCC(=O)Nc3cc(C)on3)n2N)cc1OC
  3%	-6	-1.8	3.1	-10	1.5	7
[30] CCOC(=O)[C@H]1[C@H]2COc3ccc(OC)cc3[C@@H]2N2C(=O)CN(Cc3ccco3)C(=O)[C@@]12C
  ·	6	-3.9	·	·	2.3	-4
[31] CCOC(=O)c1ccc(-c2ccc(/C=N/NC(=O)CN(c3ccccc3Cl)S(C)(=O)=O)o2)cc1
  6%	-4	-1.8	0.4	0	-0.1	5
[32] CC1=NN(C(N)=S)C(=O)C1N=Nc1ccc(C)c(Br)c1 (centres undefined)
  ·	34	2.1	-2.8	2	-0.1	10
[33] Cc1cc2nc(C(F)(F)F)[nH]c(=O)n2n1
  1%	-2	-1.3	-0.5	-5	-1.8	-2
[34] COc1ccc(C(=O)CCC(=O)NCCc2ccccc2F)cc1
  0%	0	3.4	?	-6	2.1	-2
[35] O=C(NCc1cccs1)c1cnn2cccnc12
  10%	-3	5.9	-2.0	4	-3.3	-2
[36] FC(F)Oc1cccc2cccnc12
  ?	-13	1.1	0.8	-8	-2.9	-8
[37] CC(=O)N1CCOc2ccc(S(=O)(=O)NCc3ccc(C)cc3)cc21
  ·	0	3.8	7.7	7	-1.3	-1
[38] Cc1cccc(C(=O)NC(=S)NCc2ccccc2)c1
  ·	2	3.9	-11	2	-5.1	-11
[39] COc1cc(C=O)ccc1OCC(=O)Nc1ccccc1N1CCOCC1
  ·	12	1.0	-4.9	-3	-12	4
[40] S=C(Nc1ccc(Cl)cc1Cl)NC1CCN(Cc2ccccc2)CC1
  1%	·	-0.2	0.8	16	-1.5	1
[41] c1ccc(-c2cccc(-c3ccccc3)n2)cc1
  -5%	?	-0.1	-0.8	-4	1.0	-14
[42] CCOc1ccc(N(CC(=O)Nc2ccccc2Cl)S(C)(=O)=O)cc1
  -6%	·	-3.6	4.7	2	-1.5	-10
[43] COc1ccc(-c2c(C)nn(-c3ccccc3)c2N)cc1OC
  -1%	12	-1.3	2.8	8	-2.2	4
[44] O=C(O)c1c[nH]c2c([N+](=O)[O-])cccc2c1=O
  32%	·	-16	·	·	·	3
[45] CC(=O)N1CCN(S(=O)(=O)c2ccc(S(=O)(=O)N3CCCC(C)C3)cc2)CC1 (centres undefined)
  ·	-2	-3.5	1.9	0	2.2	0
[46] CCCN(CCC)C(=O)c1ccc2c(c1)N(Cc1ccccc1)C(=O)CS2=O (centres undefined)
  -2%	-2	0.2	?	7	-2.9	5
[47] Clc1cccc(/C=N/Nc2nnc(Cl)c3ccccc23)c1
  1%	2	-1.0	34*	-14	2.4	8
[48] COc1cccc(CC(NC(C)=O)C(=O)NC2CCN(C(=O)c3ccncc3)CC2)c1OC (centres undefined)
  -2%	·	1.1	2.5	-2	·	-7
[49] CN(C)CCCN(C(=O)COc1ccc(Cl)cc1)c1nc2ccc(F)cc2s1
  ·	-3	0.6	2.2	-7	-0.3	2
[50] CNC(=O)Cn1nc(-c2ccc(Cl)cc2)c2ccccc2c1=O
  -8%	-6	-1.2	3.0	-3	3.3	0
[51] c1ccc(Nc2nc(NCC3CCCO3)c3ccccc3n2)cc1 (centres undefined)
  -1%	-1	1.3	0.6	?	1.9	4
[52] COc1ccc(C(=O)NC(=S)NNC(=O)c2ccco2)cc1
  ·	100*	4.7	-1.3	1	-9.0	3
[53] Cc1cc(C(=O)Nc2cccc(S(=O)(=O)N3CCOCC3)c2)c2ccccc2n1
  ·	-15	-2.8	·	·	-0.3	2
[54] N#CN=C(c1ccccc1)c1ccccc1
  5%	0	2.0	-2.3	-2	12	0
[55] CCN1CCN(c2cc(C)c3cc(NC(=O)c4cnccn4)ccc3n2)CC1
  26%	-2	1.9	-2.5	-3	1.0	18
[56] CCCOc1ccc(C(=O)Nc2c[nH]c(=O)[nH]c2=O)cc1
  10%	-2	-1.7	-0.7	-6	-0.4	-3
[57] CSc1ncccc1C(=O)Nc1ccc(S(=O)(=O)Nc2nccs2)cc1
  15%	20	3.2	-4.2	-5	0.9	3
[58] CCOC(=O)C1CCCN(c2c(Nc3cccc(C)c3)c(=O)c2=O)C1 (centres undefined)
  4%	·	0.9	1.0	-4	4.7	4
[59] CCOc1ccc(N2C=Nc3ccc(OCC)cc3C2)cc1
  2%	9	5.6	0.9	3	-1.4	-6
[60] Cc1nn(C)cc1C1C2=C(CC(C)(C)CC2=O)N(c2ccccc2)C2=C1C(=O)CC(C)(C)C2
  6%	-8	-0.1	12	-3	0.8	9

(next part)
Results follow in this order: Vif A3G	ALR inh	HNF4A DNA FP	RanGTP-Impb inh	Calb FLC	LANA-H2B inh	Beta2AR agonist
[61] Cc1ccc(-c2csc(/C(C#N)=C/Nc3ccc4c(c3)OCCO4)n2)cc1
  ·	-7	5.8	-1.3	-2	0.8	2
[62] COC(=O)CN(C)C(=O)CC1C(=O)NCCN1CC(C)(C)C (centres undefined)
  -2%	-14	0.3	?	14	-3.6	3
[63] Cc1ccccc1N1CCN(Cc2nc(Cc3ccccc3)no2)CC1
  -8%	30	3.5	2.1	-2	1.7	3
[64] O=C(CSc1nnc(-c2cccnc2)o1)N1CCCCC1
  ·	·	-3.9	0.9	-4	-0.3	-1
[65] NC(=O)c1cc2ccccc2o/c1=N/NC(=O)c1cccs1
  -5%	0	-5.8	1.9	9	5.6	0
[66] COC(=O)c1cccc(N(CC(=O)NC2CCCCC2)C(=O)CNC(=O)c2cccs2)c1
  5%	1	-0.7	-0.2	2	1.7	9
[67] Cc1cc(-c2nnc(SCc3ccccn3)o2)no1
  1%	-19	-1.1	2.4	-1	3.9	-1
[68] COc1ccc(Cl)cc1NC(=O)C1CCN(C(=O)Nc2ccccc2)CC1
  -3%	-7	3.8	·	·	-1.1	7
[69] C#CCOCCOCCOCCNc1nc(N2CCN(C(=O)[C@H](CCC(=O)O)n3cc([C@@H](N)[C@H](C)CC)nn3)CC2)nc(N2CCN(C(=O)[C@H](CCC(=O)O)n3cc([C@@H](N)CCSC)nn3)CC2)n1
  -1%	3	-0.2	·	·	·	1
[70] O=C(c1ccc(COc2ccc3ccccc3c2)o1)N1N=C(C(F)F)CC1(O)C(F)F (centres undefined)
  0%	-11	-1.1	?	-13	-1.2	6
[71] CC(NC(=O)c1ccccc1)C(=O)OCC(=O)c1ccc(Br)cc1 (centres undefined)
  ·	-8	1.5	0.0	0	-0.1	-2
[72] O=C(NNC(=S)NCc1ccccc1)c1ccc(Br)cc1
  ?	0	-1.8	0.2	-12	9.7	-3
[73] CC(=O)c1cccc(NC(=O)Nc2cnn(Cc3ccc(Cl)cc3Cl)c2)c1
  4%	-4	-3.7	5.5	-7	3.7	-6
[74] COc1ccc(S(=O)(=O)Nc2nnc(Cc3ccc(OC)c(OC)c3)s2)cc1
  ·	98*	0.5	5.9	-2	-2.0	-3
[75] Cc1ccc(/C=c2\sc3n(c2=O)CN(c2cccc(Br)c2)CN=3)o1
  28%	-1	0.1	-3.2	-1	-6.8	4
[76] O=C(CNC(=O)c1ccc2c(c1)OCCO2)N/N=C/c1ccc(O)cc1O
  7%	27	2.2	3.3	-9	-11	2
[77] NS(=O)(=O)c1cccc(NC(=O)c2ccno2)c1
  2%	-4	-0.4	-1.1	2	-0.2	3
